# Bioassay records as filed in PubChem BioAssay.
# A488 autofl – qHTS Assay for Spectroscopic Profiling in A488 Spectral Region; actives 0.1% (n = 59,000); compound autofluorescence, A488 spectral region, dye equivalency; stronger effect = higher value; AID 591, 2007; max dye equivalency, M; active = above 10 nM dye equivalent; inconclusive = 1 to 10 nM; inactive = 1 nM or less; about half of its hits are not listed in these tables;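 note: highest value over a series up to 38 µM; compound alone in buffer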
#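 Compounds pin-transferred into 100 mM Tris buffer, pH 8.0, incubated 15 min at room temperature, then imaged with 480 nm excitation/540 nm emission filters. Fluorescence converted to Alexa 488 dye-equivalent concentration via an on-plate six-point A488 standard curve.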
# AID923 – qHTS Assay for Allosteric/Competitive Inhibitors of Caspase-1: Spectroscopic Profiling in AFC Spectral Region; compound fluorescence, AFC spectral region (405/520 nm); almost no hit is shown here; Potency, µM (titrated, usually from 57.5 µM), for inactives: at the top dose fluorescence increase, most hits filed as activators; actives 1.1% (n = 75,000); active = well fitted activation curve with a large enough effect; inconclusive = small, poorly fitted or top-dose-only effect;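 note: potency is the fitted concentration of half-maximal effect; 0% is about no effect; scaled to a free AFC standard on each plate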
#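 Baseline compound fluorescence (AFC region, 405 nm ex/520 nm em) taken from the intercept of kinetic reads with 50 nM caspase-1 and 5 uM Ac-WEHD-AFC; normalized to an on-plate AFC standard curve; compounds titrated up to 57 uM.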
# TSHR ag – qHTS Assay for Agonists of the Thyroid Stimulating Hormone Receptor; AID 926, 2007; HEK293-CNG-TSHR cells (CNG channel as cAMP sensor), membrane potential dye, cAMP; actives 0.48% (n = 73,000); Potency, µM (top dose mostly 57.1 µM), for inactives: at the highest dose activation, most hits filed as activators; active = well fitted activation curve of enough size with the parental cells flat; inconclusive = any curve in the parental cells; inactive = parental cells flat and receptor cells flat or falling; note: potency is the fitted concentration of half-maximal effect; % of control where 0% means no effect; weak receptor curves with flat parental cells got no call and are not listed
# Target sequence (P16473 whole entry, looked up): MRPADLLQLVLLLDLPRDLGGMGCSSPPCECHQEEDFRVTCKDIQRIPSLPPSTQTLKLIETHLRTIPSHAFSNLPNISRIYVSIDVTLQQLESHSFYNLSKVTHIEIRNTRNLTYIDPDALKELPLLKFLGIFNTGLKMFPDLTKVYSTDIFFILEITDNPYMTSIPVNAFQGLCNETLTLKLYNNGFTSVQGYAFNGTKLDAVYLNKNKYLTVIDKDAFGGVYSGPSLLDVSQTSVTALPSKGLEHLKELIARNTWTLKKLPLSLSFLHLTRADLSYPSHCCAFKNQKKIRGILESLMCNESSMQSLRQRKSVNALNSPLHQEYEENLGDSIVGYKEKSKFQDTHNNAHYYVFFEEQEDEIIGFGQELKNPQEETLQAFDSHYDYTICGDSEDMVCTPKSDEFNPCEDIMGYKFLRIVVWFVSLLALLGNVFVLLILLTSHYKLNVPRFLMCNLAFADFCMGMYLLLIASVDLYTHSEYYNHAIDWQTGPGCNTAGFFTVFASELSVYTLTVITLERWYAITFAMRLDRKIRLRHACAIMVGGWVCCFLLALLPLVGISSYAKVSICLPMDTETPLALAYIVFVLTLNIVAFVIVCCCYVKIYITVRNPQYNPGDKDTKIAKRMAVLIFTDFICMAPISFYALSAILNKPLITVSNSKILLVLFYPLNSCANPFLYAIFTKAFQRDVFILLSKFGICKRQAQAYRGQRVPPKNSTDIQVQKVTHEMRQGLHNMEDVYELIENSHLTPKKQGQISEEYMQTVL
#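 cAMP rise detected as CNG-channel membrane depolarization by fluorescent dye (emission 590 nm), 30 min after compound, following 60 min dye loading containing 100 uM RO 20-1724 at room temperature. Cells: TSHR/CNG HEK 293, with parental CNG HEK 293 as control.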
# Resorufin autofl – qHTS Assay for Spectroscopic Profiling in Resorufin Spectral Region. Compound fluorescence, resorufin region 547/598 nm, buffer; stronger effect = higher value. max dye-equivalent concentration, M. actives 0.04% (n = 59,000). AID 588, 2007; active = above 10 nM dye equivalent; inconclusive = 1 to 10 nM; inactive = 1 nM or less; a few of its hits are not listed in these tables; note: highest value over a series up to 38 µM
#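 Compounds in 100 mM Tris buffer, pH 8.0, incubated 15 min at room temperature, then read with 547 nm excitation and 598 nm emission filters. Fluorescence was converted to dye-equivalent concentration using an on-plate six-point resorufin standard curve.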
# A647 autofl – qHTS Assay for Spectroscopic Profiling in A647 Spectral Region. 59,000 tested, under 10 active. Compound fluorescence, A647 channel (570/671 nm), Tris buffer. AID 592, 2007. max dye-equivalent concentration, M; active means above 1 µM dye equivalent; inconclusive means 0.1 to 1 µM; inactive means 0.1 µM or less;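 note: values scaled relative to a standard on each plate; highest value over a series up to 38 µM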
#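 Fluorescence read (570 nm ex, 671 nm em) after 15 min RT incubation of compounds in 100 mM Tris buffer, pH 8.0; values expressed as dye-equivalent concentration against a six-point A647 standard series on each plate.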
# An asterisk follows results filed as active; i = inactive; ? = inconclusive; . = no result given; [ ] = another dose, or the depositor's remark. The list is partial (hit frequency here may not be typical).
# Screens in order: TSHR ag	A647 autofl	A488 autofl	AID923	Resorufin autofl
COc1cc(NC(=O)c2ccc(COc3ccccc3Br)o2)cc(OC)c1OC
    2%	2.8e-09	i	-1.4%	i
CCOC(=O)c1ccc2nc(NC(=O)c3ccco3)sc2c1
    -8%	6.3e-09	i	1.1%	i
Fc1ccc2nc(-c3ccccc3)nc(SCc3nnc(-c4ccccc4)o3)c2c1
    7%	5.1e-08	i	1.3%	i
Cc1nc(-c2ccc(C(=O)N3CCOCC3)cc2)cs1
    -2%	1.9e-08	i	-1.2%	i
CCn1cc(C(=O)N2CCCc3ccccc32)c2cc(OC)c(OC)cc2c1=O
    25%	1.1e-08	i	0.8%	i
CC(=O)N1[C@H](C)C=C[C@]1(Cc1ccccc1)C(=O)NCCN1CCOCC1
    ?	.	.	1.6%	.
CCOc1ccccc1NC(=O)Cc1ccccc1OC
    ?	1e-09	i	1.0%	i
CCOC(=O)Cc1csc(NC(=O)CSc2nc(C)cc(=O)[nH]2)n1
    ?	1.6e-08	i	-1.6%	i
O=C(Cn1ncc2c(=O)oc3ccccc3c21)NC1CC1
    1%	1e-09	i	0.8%	i
Cc1ccc(-c2nn3c(C)nnc3s2)cc1NC(=O)CSc1ccc(Cl)cc1
    17%	1.5e-08	i	-2.0%	i
CC1CCCC(C)N1C(=O)CSc1nnc(-c2cccs2)o1 (centres undefined)
    14%	2e-09	i	1.0%	i
Cc1ccc(S(=O)(=O)N2CC3(C)CN(S(=O)(=O)c4ccc(C)cc4)CC(C)(C2)C3O)cc1 (centres undefined)
    -1%	5e-08	i	1.1%	i
COc1ccc(NS(=O)(=O)c2ccc(NS(=O)(=O)c3ccc(C)cc3)cc2)nn1
    2%[11.4 µM]	.	.	-1.2%	.
CC[C@@H](c1ccccc1)n1c(=O)n2n(c1=O)[C@H]1[C@H](O)[C@H]3O[C@H]3C(=O)[C@H]1CC2
    0%[11.4 µM]	.	.	-3.2%[11.5 µM]	.
CCN(CC)CCCn1c(-c2ccccc2)nc2c(NCCOC)nc(C)nc21
    2%	.	.	1.2%	.
CCOc1ccc(C(=O)Nc2nnn(CC)n2)cc1
    1%	1e-09	i	-0.4%	i
CN(C)CCCN1c2ccccc2C(C)(C)c2ccccc21
    0%[11.4 µM]	6.4e-09	i	7.9%[11.5 µM]	i
Cc1noc(/C=C/N(C)C)c1S(=O)(=O)N(C)CC(=O)NC1CCCCC1
    -7%	1e-09	i	1.2%	i
O=c1cc(O)c2c(=O)n3c4c(cccc4c2o1)CCC3
    7%	2.8e-09	i	0.7%	i
CCOC(=O)COc1nc(Nc2ccccc2C)nc(N(C)C)n1
    5%	3.1e-08	i	0.0%	i
CCOC(=O)c1ccc(-c2nnc(-c3ccc(Cl)cc3Cl)o2)cc1
    ?	3.7e-08	i	1.3%	i
CCCn1c(CCc2ccccc2)nnc1SCC(=O)N1CCCC1
    1%	5.6e-09	i	1.1%	i
O=C(c1ccc(CN2CCc3ccccc3C2)cc1)N1CCCCC1
    13%	.	.	2.6%	.
O=C(NCc1cccs1)c1cc2ccccc2o1
    ?	2.2e-08	i	0.6%	i
COCCN1CN(S(=O)(=O)c2ccccc2)c2nc3ccccc3nc21
    1%	1e-09	i	1.6%	i
CCCCCN(C(=O)NC(=O)NC(C)CC)S(C)(=O)=O (centres undefined)
    1%[11.4 µM]	1e-09	i	-0.1%	i
Cc1cc2c(c(=O)n1CCCn1ccnc1)C(c1ccco1)C(C#N)=C(N)O2 (centres undefined)
    2%	2.4e-09	i	2.9%	i
Cc1cccc(N(C)S(=O)(=O)c2cccc3nsnc23)c1
    26%	1.2e-08	i	-0.3%	i
O=C(NCC1CCCO1)c1cc(-c2ccccc2)on1 (centres undefined)
    7%	8.9e-09	i	-0.9%	i
Cc1ccc(-c2nc3cc(C)ccc3o2)cc1
    8%	.	.	0.5%	.

# Three compounds from above, ordered by their value in A647 autofl, largest number first:
Compound,A647 autofl,A488 autofl,Resorufin autofl
CCn1cc(C(=O)N2CCCc3ccccc32)c2cc(OC)c(OC)cc2c1=O,1.1e-08,i,i
CCOC(=O)c1ccc2nc(NC(=O)c3ccco3)sc2c1,6.3e-09,i,i
CCOc1ccc(C(=O)Nc2nnn(CC)n2)cc1,1e-09,i,i

# Next part:
# Screens in order: TSHR ag	A647 autofl	A488 autofl	AID923	Resorufin autofl
COc1ccc(OC)c(C2C(C#N)=C(N)Oc3c2c(C)nn3-c2cccc(Cl)c2)c1 (centres undefined)
    -11%	1e-09	i	6.4%	i
O=C(COc1ccc(S(=O)(=O)N2CCCCC2)cc1)NCc1ccncc1
    2%	6.1e-08	i	-0.8%	i
O=C(CN1C(=O)C2(OCCO2)c2ccccc21)c1ccc(Cl)cc1
    25%	.	.	1.5%	.
O=C1OCCC1S(=O)(=O)c1ccc2ccccc2c1 (centres undefined)
    ?	1e-09	i	0.1%	i
C[C@H]1CC[C@H]2C(=O)N3[C@H](c4ccc(Br)cc4)[C@@H](C)CC[C@H]3C(=O)N2[C@@H]1c1ccc(Br)cc1
    ?	.	.	-0.9%[11.5 µM]	.
COc1ccc(C(O)C(CN2CCOCC2)c2ccccc2)cc1 (centres undefined)
    .	3.4e-09	i	.	i
O=C(NC1CCCC1)C1CC1c1ccccc1 (centres undefined)
    4%	1e-09	i	-1.1%	i
CCc1ccccc1NC(=O)CSc1nnc([C@@H](N)Cc2ccccc2)o1
    14%	1.7e-08	i	-0.3%	i
OC(COc1ccc(Cl)cc1)CN1C2=NCCCN2c2ccccc21 (centres undefined)
    ?	5.1e-08	i	-0.5%	i
O=C1Nc2ccccc2C(O)(C(=O)NCc2ccco2)N1c1ccccc1 (centres undefined)
    1%	2.1e-09	i	0.0%	i
CCCSc1nc(N2CCOCC2)c2c(c1C#N)CCCC2
    .	3.7e-08	i	.	i
Cc1cnc(-c2nnc(N(C)C(=O)c3cnccn3)s2)cn1
    -5%	1e-09	i	2.3%	i
O=C(Cc1coc(-c2ccc(F)cc2)n1)N1CCOCC1
    6%	.	.	2.8%	.
Cc1csc(NC(=O)CSc2nc(C)cs2)n1
    -2%	3e-08	i	-2.8%	i
CCOc1ccc(C(=O)N2CCN(Cc3ccccc3)CC2)cc1
    11%	.	.	-0.7%	.
O=C(Cn1nnc2ccccc21)NCc1ccccc1
    2%	5.5e-08	i	-2.6%	i
CO[C@@H]1COC(=O)CCC[C@@H](C)[C@H](OC)COC(=O)CCC[C@H]1C
    -5%[11.4 µM]	.	.	-0.2%[11.5 µM]	.
CCOC(=O)C1CCCN(C(=O)c2cc3c(=O)n(C)c4ccccc4c3n2C)C1 (centres undefined)
    11%	.	.	-1.7%	.
CC(=O)NCCOC(=O)Nc1ccncc1
    -4%	.	.	1.0%	.
COC(=O)Cn1cnc2c(C#N)c3n(c2c1=O)CCCCC3
    3%	4.4e-08	i	0.7%	i
CCn1c(COc2ccccc2)nnc1SCC(=O)NC1CCCCC1
    ?	2.5e-08	i	-1.3%	i
COC(=O)c1ccc(OC(=O)c2ccc(OC)c(OC)c2)c(OC)c1
    .	3.3e-08	i	.	i
O=C(Nc1ccc2c(c1)OCO2)C1CCN(C(=O)CSc2ncnc3ccccc23)CC1
    -5%	1.3e-08	i	0.2%	i
c1ccc2oc(CCc3nc4ccccc4o3)nc2c1
    3%	3.6e-09	i	0.6%	i
CC(=O)c1c(C)[nH]c(C(=O)Nc2cc(C)ccc2C)c1C
    -1%	.	.	2.0%	.
COc1cc(-c2nc(Cc3ccccc3Cl)no2)cc(OC)c1OC
    22%	1.6e-08	i	-0.3%	i
COCCSc1ccccc1C(=O)Nc1nnc(COC)s1
    -2%[11.4 µM]	2.3e-08	i	0.8%	i
Fc1ccccc1OCCCN1CCOCC1
    2%	1.2e-08	i	-2.4%	i
Cc1cccc(CNc2cc(-c3ccoc3)ncn2)c1
    16%	6.8e-09	i	3.9%	i
O=C(O)CCN1CCOCC1
    3%	3.8e-09	i	2.8%	i

# Later entries
# Screens in order: TSHR ag	A647 autofl	A488 autofl	AID923	Resorufin autofl
CCn1nc(NC(=O)c2ccco2)c2cc3ccccc3nc21
    .	4.5e-08	i	.	i
CCC(=O)N1CCc2cc(S(=O)(=O)CCC(=O)Nc3nc(C)cs3)ccc21
    -2%	1.7e-09	i	-0.5%	i
CS(=O)(=O)c1ccc(Cl)c(S(=O)(=O)NCc2ccccc2)c1
    5%	2.9e-08	i	0.7%	i
O=C(NCCCN1CCCC1)c1ccc(CS(=O)(=O)c2ccc(Br)cc2)o1
    4%	.	.	2.1%	.
O=C(Nc1ccc(S(=O)(=O)N2CCN(Cc3ccccc3)CC2)cc1)c1cnccn1
    16%	1e-09	i	-0.6%	i
CN1CCN(c2ncncc2-c2ccccc2Cl)CC1
    3%	1.3e-08	i	2.4%	i
Cn1c(Sc2ccc(-c3cccnc3)n2C)ccc1-c1cccnc1
    -5%[11.4 µM]	1e-09	i	-2.2%[11.5 µM]	i
CC(C)c1ccccc1S(=O)c1ccccc1C(C)(C)O (centres undefined)
    2%[11.4 µM]	1e-09	i	0.4%[11.5 µM]	i
CCn1c(CNC(=O)c2cccc(C)c2)nnc1SCC(=O)Nc1cccc(OC)c1
    4%	1e-09	i	0.6%	i
NC(=O)C1CCN(CCC(=O)Nc2cccc(Cl)c2)CC1
    18%	1.3e-08	i	0.4%	i
CCCCC(=O)Nc1ccc2c3c(cccc13)C(=O)N2CC
    -11%	4e-09	i	7.9%	i
Cc1cc(C)c2cc(CN(CCO)C(c3nnnn3Cc3ccc(F)cc3)C(C)C)c(=O)[nH]c2c1 (centres undefined)
    ?	3.2e-08	i	3.3%	i
O=C(c1ccco1)N1CCN(C(=O)c2cc3sccc3n2Cc2ccccc2)CC1
    ?	8e-09	i	-0.3%	i
COc1ccc2nc(NC(=O)C3CCN(S(=O)(=O)c4cccc5nsnc45)CC3)sc2c1
    20%	1e-09	i	-0.7%	i
N#CC1=C(N)S[C@H](C(=O)C23CC4CC(CC(C4)C2)C3)[C@H]1c1ccncc1
    1.3µM*	2.9e-08	i	0.8%	i
O=C(N1CCOCC1)N1CCN(c2ccccc2F)CC1
    -13%	.	.	-6.0%	.
CSCCc1nc(SCC(=O)Nc2nnc(C)s2)[nH]c1C
    -4%	2.5e-08	i	1.1%	i
CC1CCCN(C(=O)Cc2ccc(F)cc2)C1 (centres undefined)
    4%	1e-09	i	-1.3%	i
CC1CCC(C(=O)O)NC1c1cccc(N2CCCC2=O)c1 (centres undefined)
    -8%[11.4 µM]	.	.	0.8%[11.5 µM]	.
CC(O)CN1C(=O)C(CC(=O)Nc2ccc(Cl)cc2)SC1=Nc1ccccc1 (centres undefined)
    -8%	6.6e-09	i	-2.4%	i
Cc1cccc(OCCSc2nnc(-c3ccoc3C)n2C)c1
    23%	1.2e-08	i	-1.1%	i
O=C(CCn1cccc1)Nc1ccccc1F
    ?	.	.	-1.0%	.
Cc1cccc(C)c1NC(=O)CSc1nnc(CCCCCNC(=O)OC(C)(C)C)o1
    11%	6.8e-09	i	-1.1%	i
Cc1ccccc1-c1ccc(Nc2ccc(C(=O)N3CCOCC3)cc2)nn1
    -2%	7e-09	i	-0.4%	i
CCOc1cc([C@H]2[C@@H]3CCCC[C@]3(O)CCN2CC(=O)NCc2ccco2)ccc1O
    2%	1e-09	i	1.4%	i
CC(C)CCn1cnc2c1c(=O)n(C)c(=O)n2C
    4%	1e-09	i	-5.9%	i
